FGF22 binding – shifts melting point of recombinant human FGF22; Q9HCT0; recombinant FGF22 thermal shift, SYPRO orange fluorescence; percent of sucrose octasulfate shift, DMSO zero; calls only at 9.99 µM; hit rate 1.5% among 340,000;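 active means melting point raised past a set limit in the mean and every replicate; three in four hits are not shown here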
Ecoli rRNA inh – inhibits bacterial ribosomal RNA function over humanized ribosomes | E. coli WT GFP vs humanized-ribosome RFP mutants, fluorescence, 24 h; stronger effect = lower value; DMSO median 0, no signal -100 | GFP signal change (wild-type ribosome), % (concentration not given with the values) | hit rate 1.6% among 350,000 | AID 720706;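 active means significant combined selectivity score with lowered wild-type GFP, culture density cut under 30%, mutant RFP and density less affected; inactive means any of these conditions unmet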; further: one replicate is shown; some compounds called inactive have numbers as strong as hits
Beta2AR agonist – activates human beta-2 adrenergic receptor causing internalization; Am2.2-beta2AR cells, FAP receptor internalization, flow cytometry; reference of the scale not given here; response, % (concentration not given with the values); hit rate 0.43% among 340,000;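 active means response above a set limit, near 3 SD of response in nonfluorescent compounds, cut at about 42% in these data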;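 further: stock transfer was 100 nL into about 11 µL; a reference agonist was the positive control; negative values mostly stem from fluorescent compounds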
UCH37 DUB inh – inhibitors of human deubiquitinating enzyme UCH37 | Q9Y5K5 | inhibition, % (test concentration not listed) | hit rate 0.33% among 330,000 | purified proteasome/UCH37, Ub-AMC cleavage fluorescence;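 active means mean of two replicates above 20%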;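 further: 0% = compound-free wells with enzyme and 100% = wells lacking proteasome; stock transfer was 100 nL into about 20 µL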
Target sequence (Q9Y5K5 whole entry, looked up): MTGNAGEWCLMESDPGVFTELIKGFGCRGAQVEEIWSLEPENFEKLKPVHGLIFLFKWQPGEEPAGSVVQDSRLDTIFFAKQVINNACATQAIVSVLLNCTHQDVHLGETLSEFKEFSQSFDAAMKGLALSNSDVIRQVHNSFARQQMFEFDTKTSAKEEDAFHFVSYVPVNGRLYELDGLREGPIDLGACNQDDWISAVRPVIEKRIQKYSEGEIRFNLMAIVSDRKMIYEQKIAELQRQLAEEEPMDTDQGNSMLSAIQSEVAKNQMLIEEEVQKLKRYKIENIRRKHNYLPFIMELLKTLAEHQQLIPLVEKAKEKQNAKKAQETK
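Signal – fluorescence, ex 355 nm, em 460 nm · System – Proteasome-bound UCH37 · Input – 0.15 nM proteasome as dispensed · Timing – 30 min preincubation with enzyme, 25 min cleavage at room temperature · Read-out basis – percent inhibition of cleavage signal versus uninhibited and no-proteasome wells · Medium – Tris-HCl pH 7.4 with ATP-MgCl2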
HNF4A DNA FP – change in binding of human HNF4 alpha to DNA; activity change, % at 10 µM; hit rate 0.3% among 360,000; P41235; HNF4a-FITC DNA binding, fluorescence polarization, 1 h; in the data active means activity change above about 30%, passing the limit was not always enough;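 further: controls were the assay level and a saturating level of protein; the project sought stronger binding though the title names inhibitors; some compounds called inactive have numbers as strong as hits; positive values seem to mean higher polarization but the record does not say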
Target sequence (P41235 whole entry, looked up): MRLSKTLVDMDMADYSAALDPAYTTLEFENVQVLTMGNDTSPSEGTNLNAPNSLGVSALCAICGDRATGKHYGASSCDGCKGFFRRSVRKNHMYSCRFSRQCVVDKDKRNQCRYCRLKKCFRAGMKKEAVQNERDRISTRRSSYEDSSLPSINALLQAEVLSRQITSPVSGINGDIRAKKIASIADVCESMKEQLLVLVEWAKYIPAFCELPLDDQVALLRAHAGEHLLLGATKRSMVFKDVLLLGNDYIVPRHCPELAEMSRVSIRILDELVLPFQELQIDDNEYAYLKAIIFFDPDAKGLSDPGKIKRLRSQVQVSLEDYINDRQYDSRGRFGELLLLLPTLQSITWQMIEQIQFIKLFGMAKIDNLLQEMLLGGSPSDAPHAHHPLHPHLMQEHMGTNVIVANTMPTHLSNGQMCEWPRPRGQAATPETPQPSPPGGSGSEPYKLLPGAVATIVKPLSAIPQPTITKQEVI
E coli growth – E. coli growth inhibition; Escherichia coli growth, OD600, 23 h; stronger effect = lower value; OD600 absorbance (no concentration beside the values); hit rate 0.21% among 330,000;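 active means OD600 absorbance below the run mean of sample wells minus 3.6 SD, in any replicate, cut at about 0.56 in these data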;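 further: stock transfer was 300 nL into about 60 µL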
ALR inh – inhibitors of human sulfhydryl oxidase ALR; P55789; purified ALR, DTT oxidation, H2O2 HRP-luminol luminescence; inhibition, % (no concentration beside the values); hit rate 3.8% among 290,000;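 active means mean and each replicate at 75% or more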;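 further: stock transfer was 7.5 nL into about 7.5 µL; 0% = neutral wells and 100% = wells with inactivated enzyme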
Target sequence (P55789 whole entry, looked up): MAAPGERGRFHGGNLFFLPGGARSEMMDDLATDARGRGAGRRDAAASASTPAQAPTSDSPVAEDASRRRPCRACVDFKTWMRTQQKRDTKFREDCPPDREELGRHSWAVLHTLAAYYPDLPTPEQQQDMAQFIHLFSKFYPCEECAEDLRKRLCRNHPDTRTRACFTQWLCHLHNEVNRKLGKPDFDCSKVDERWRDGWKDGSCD
Ecoli rRNA inh OD600 – recorded beside Ecoli rRNA inh, whose call it bears; OD600 change, %; measured here: OD600 growth;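 optical density of the mix in the first replicate; 0 = DMSO median and -100 = no signal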
Ecoli rRNA inh RFP – further read-out of Ecoli rRNA inh, marked with its call; RFP signal change, %; measured here: RFP humanized mutant strains;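 first replicate; 0 = DMSO median and -100 = no signal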
* = called active by the depositor. An excerpt; the hit share may differ from the screen's.

Cc1ccc(Cl)c(NC(=O)COC(=O)CNS(=O)(=O)/C=C/c2ccccc2)c1Cl was read as Beta2AR agonist 8.6, UCH37 DUB inh -1.7, HNF4A DNA FP 1.1 and E coli growth 0.716.
`CCC(CNc1cc(OC)cc2cccnc12)NC1CCCCC1` (stereo not drawn) gave FGF22 binding inactive, Ecoli rRNA inh 44.0, Beta2AR agonist 7.1, UCH37 DUB inh 37.3*, HNF4A DNA FP 4.7, E coli growth 0.628, ALR inh -71.6, Ecoli rRNA inh OD600 -39.9 and Ecoli rRNA inh RFP 31.8.
For C/C(=N/NC(=O)c1cc(C2CC2)[nH]n1)c1cccs1 the results were Beta2AR agonist -8.1, HNF4A DNA FP -1.2 and ALR inh 3.0.
`COc1cc(-c2cnc3c(NC(C)=O)cc(-c4ccccc4CN(C)C)cn23)cc(OC)c1OC` gave FGF22 binding inactive, Ecoli rRNA inh 2.6, HNF4A DNA FP 1.1, Ecoli rRNA inh OD600 7.5 and Ecoli rRNA inh RFP 3.3.
COc1ccccc1C(OC(=O)c1ccco1)C(=O)NCc1ccc(F)cc1 (stereo not drawn) was read as FGF22 binding inactive, Ecoli rRNA inh 1.0, Beta2AR agonist 2.0, UCH37 DUB inh 0.7, HNF4A DNA FP 5.4, E coli growth 0.711, ALR inh -0.3, Ecoli rRNA inh OD600 -4.5 and Ecoli rRNA inh RFP -3.6.
For C=CCc1cccc2cc(C(=O)NCc3cccnc3)c(=O)oc12 the results were Beta2AR agonist -9.8, UCH37 DUB inh -23.2, HNF4A DNA FP -6.7, E coli growth 0.685 and ALR inh -13.8.
Screening CC1C(=O)CCN(C(C)(C)C)C1C (stereo not drawn) returned Beta2AR agonist -7.3, UCH37 DUB inh 0.1, HNF4A DNA FP 1.0, E coli growth 0.747 and ALR inh -3.7.
CCOC(=O)C1CCN(C(=O)CSc2ccc(Br)cc2)CC1 was read as FGF22 binding inactive, Ecoli rRNA inh -11.7, Beta2AR agonist 0.9, UCH37 DUB inh 5.6, HNF4A DNA FP 0.1, E coli growth 0.698, ALR inh -10.7, Ecoli rRNA inh OD600 -15.4 and Ecoli rRNA inh RFP -3.7.
For Cc1ccc2c(c1)N(CCC(=O)NCC1CCCO1)C(=O)CO2 (stereo not drawn) the results were Beta2AR agonist 10.4, UCH37 DUB inh -0.5, HNF4A DNA FP -1.6 and E coli growth 0.664.
For COc1ccccc1OCCNC(=O)c1cc(F)c(F)cc1Cl the results were FGF22 binding inactive, Beta2AR agonist -5.1, UCH37 DUB inh 2.6, HNF4A DNA FP -4.8, E coli growth 0.727 and ALR inh -3.2.
`COc1ccc(CSc2nnc(CNS(C)(=O)=O)o2)cc1` gave Beta2AR agonist -3.3, UCH37 DUB inh 3.2, HNF4A DNA FP -1.7, E coli growth 0.664 and ALR inh -2.2.
For C/C(CC1CC(C)(C)OC1=O)=N\NC(N)=S (stereo not drawn) the results were FGF22 binding inactive, Ecoli rRNA inh 1.1, Beta2AR agonist -5.1, HNF4A DNA FP 1.1, ALR inh -6.0, Ecoli rRNA inh OD600 7.3 and Ecoli rRNA inh RFP 3.2.
For CC(=O)C1=C(O)C(=O)N(c2ccc(S(=O)(=O)Nc3nccs3)cc2)C1c1ccc(F)cc1 (stereo not drawn) the results were FGF22 binding active, Ecoli rRNA inh 4.6, Beta2AR agonist -5.7, UCH37 DUB inh 5.6, HNF4A DNA FP 1.1, E coli growth 0.694, ALR inh 4.5, Ecoli rRNA inh OD600 0.8 and Ecoli rRNA inh RFP 1.6.
`O=C(CN1N=C(c2ccccc2)CCC1=O)NCc1cccs1` gave FGF22 binding inactive, Ecoli rRNA inh 9.1, Beta2AR agonist 1.1, HNF4A DNA FP -0.4, ALR inh -1.1, Ecoli rRNA inh OD600 7.9 and Ecoli rRNA inh RFP 8.8.
Screening O=C(c1ccco1)N1CCN(Cc2c(Cl)cccc2Cl)CC1 returned FGF22 binding inactive, Ecoli rRNA inh -29.1, Beta2AR agonist -7.5, UCH37 DUB inh -1.7, HNF4A DNA FP -3.2, E coli growth 0.648, ALR inh -11.3, Ecoli rRNA inh OD600 -27.3 and Ecoli rRNA inh RFP 1.1.
`C=CCNC(=S)NCc1ccccc1OC` gave Ecoli rRNA inh 15.8, Beta2AR agonist -2.9, UCH37 DUB inh -0.6, HNF4A DNA FP 7.1, E coli growth 0.71, ALR inh -3.4, Ecoli rRNA inh OD600 7.4 and Ecoli rRNA inh RFP 2.5.
`O=C(N/C(=C\c1ccccc1)C(=O)N1CCOCC1)c1ccccc1Br` gave FGF22 binding inactive, Ecoli rRNA inh 3.5, Beta2AR agonist -2.4, UCH37 DUB inh 0.3, HNF4A DNA FP 0.8, E coli growth 0.667, ALR inh -15.2, Ecoli rRNA inh OD600 8.5 and Ecoli rRNA inh RFP -0.7.
Screening CCc1nc2c(OCCC3CCCCC3)cccn2c1N(C)C(=O)c1ccco1 returned FGF22 binding inactive, Ecoli rRNA inh -31.4, HNF4A DNA FP -5.9, Ecoli rRNA inh OD600 -58.2 and Ecoli rRNA inh RFP 7.4.
For O=C(COc1ccc(Cl)c2cccnc12)N1CCOCC1 the results were FGF22 binding inactive, Ecoli rRNA inh 4.3, Beta2AR agonist 22.6, UCH37 DUB inh -16.7, HNF4A DNA FP 3.5, E coli growth 0.704, ALR inh -1.0, Ecoli rRNA inh OD600 -3.9 and Ecoli rRNA inh RFP -11.0.
`c1ccc2oc(NC3=NCN(C4CCCCC4)CN3)nc2c1` gave FGF22 binding inactive, Ecoli rRNA inh 10.2, Beta2AR agonist -11.9, UCH37 DUB inh 1.6, HNF4A DNA FP 4.7, E coli growth 0.697, ALR inh -5.6, Ecoli rRNA inh OD600 6.7 and Ecoli rRNA inh RFP -0.5.
CCOC(=O)/C(=N\Nc1ccccc1Cl)N(C)C1CCS(=O)(=O)C1 (stereo not drawn) was read as FGF22 binding inactive, Ecoli rRNA inh -7.8, Beta2AR agonist -1.0, HNF4A DNA FP 5.2, ALR inh -4.2, Ecoli rRNA inh OD600 -3.6 and Ecoli rRNA inh RFP 1.2.
For CCOC(=O)Cn1c(=O)c(-c2cc(Br)ccc2N)nc2ccccc21 the results were FGF22 binding inactive, Ecoli rRNA inh 9.2, Beta2AR agonist -9.4, UCH37 DUB inh 7.3, HNF4A DNA FP 3.3, E coli growth 0.728, ALR inh -0.3, Ecoli rRNA inh OD600 -1.3 and Ecoli rRNA inh RFP -0.8.
`COc1cccc(OC)c1C(=O)NNC(=O)c1ccccc1-n1cccc1` gave FGF22 binding inactive, Ecoli rRNA inh 17.9, Beta2AR agonist -0.3, UCH37 DUB inh 3.0, HNF4A DNA FP -1.3, E coli growth 0.683, ALR inh -1.5, Ecoli rRNA inh OD600 19.8 and Ecoli rRNA inh RFP 0.3.
Screening COc1ccc(C(=O)Nc2ccc3nc(N4CCOCC4)sc3c2)cc1OC returned FGF22 binding inactive, Ecoli rRNA inh -3.3, Beta2AR agonist 15.1, UCH37 DUB inh -8.7, HNF4A DNA FP -0.5, E coli growth 0.715, ALR inh -1.8, Ecoli rRNA inh OD600 5.0 and Ecoli rRNA inh RFP -2.0.
Screening C[C@H](CO)N1C[C@H](C)[C@@H](CN(C)C(=O)Nc2ccc3c(c2)OCO3)Oc2c(NC(=O)Nc3ccc(C(F)(F)F)cc3)cccc2C1=O returned FGF22 binding inactive, Ecoli rRNA inh 9.9, Beta2AR agonist 19.8, UCH37 DUB inh -0.7, HNF4A DNA FP -1.7, E coli growth 0.784, ALR inh -10.8, Ecoli rRNA inh OD600 10.0 and Ecoli rRNA inh RFP 0.5.
For Cc1ccc(NS(=O)(=O)c2ccc(C(=O)NNC(=O)c3ccccc3O)cc2)cc1 the results were FGF22 binding inactive, Ecoli rRNA inh -39.8, Beta2AR agonist 7.6, UCH37 DUB inh 4.2, HNF4A DNA FP 2.5, E coli growth 0.657, ALR inh 18.3, Ecoli rRNA inh OD600 -66.1 and Ecoli rRNA inh RFP -4.5.
Screening COc1ccc(S(=O)(=O)NCc2ccccc2)cc1Br returned FGF22 binding inactive, Ecoli rRNA inh -11.5, Beta2AR agonist -2.2, HNF4A DNA FP 2.0, ALR inh -8.3, Ecoli rRNA inh OD600 -18.1 and Ecoli rRNA inh RFP -1.4.
`CC1(C)CC(=O)C2=C(C1)OC(N)=C(C#N)C21C(=O)N(Cc2ccccc2Cl)c2ccccc21` (stereo not drawn) gave Beta2AR agonist 15.0, UCH37 DUB inh -0.2, HNF4A DNA FP -1.0, E coli growth 0.759 and ALR inh -1.5.
`O=C1c2ccccc2NC(c2ccc(-c3cccc(F)c3)o2)N1O` (stereo not drawn) gave FGF22 binding inactive, Ecoli rRNA inh 4.1, Beta2AR agonist 5.8, UCH37 DUB inh -1.2, HNF4A DNA FP 8.2, E coli growth 0.658, ALR inh 25.6, Ecoli rRNA inh OD600 21.5 and Ecoli rRNA inh RFP -3.0.
For CC(C)C[C@@H](CN1CCCC1CN1C(=S)NC[C@@H]1Cc1ccccc1)N1C[C@H](Cc2ccc(O)cc2)N(CCc2ccccc2)C1=S (stereo partly drawn) the results were FGF22 binding inactive, Ecoli rRNA inh 7.1, HNF4A DNA FP 0.6, Ecoli rRNA inh OD600 12.6 and Ecoli rRNA inh RFP 11.8.
`CCOc1ccc(C(=O)CC(Sc2ccc(C)cc2)C(=O)O)cc1` (stereo not drawn) gave FGF22 binding inactive, Ecoli rRNA inh -3.5, Beta2AR agonist 5.9, UCH37 DUB inh 4.5, HNF4A DNA FP -0.1, E coli growth 0.662, ALR inh 95.5*, Ecoli rRNA inh OD600 3.7 and Ecoli rRNA inh RFP 2.7.
`COc1cccc(OCc2cc(C(=O)N3CCN(C)C(c4ccccc4)C3)no2)c1` (stereo not drawn) gave Beta2AR agonist 2.5, UCH37 DUB inh 0.3, HNF4A DNA FP 0.1, E coli growth 0.696 and ALR inh -65.6.
COc1cc(/C=C/C(=O)O)cc(S(=O)(=O)N(C)CCO)c1OC was read as Beta2AR agonist 4.2, UCH37 DUB inh 3.0, HNF4A DNA FP 0.1, E coli growth 0.748 and ALR inh -4.9.
Screening Fc1cnc(N2CCc3ccccc32)nc1N1CCc2ccccc21 returned Beta2AR agonist 6.5, UCH37 DUB inh -147.7, HNF4A DNA FP 3.1, E coli growth 0.695 and ALR inh 5.0.
For COc1ccc(C(=O)Nc2sc(C)c(-c3ccccc3)c2C#N)cc1OC the results were Beta2AR agonist 8.7, UCH37 DUB inh -20.9, HNF4A DNA FP 1.9, E coli growth 0.752 and ALR inh -3.6.
`Cc1ccc(NC(=O)C2CCN(S(=O)(=O)c3ccc4c(c3)OCCCO4)CC2)nc1` gave FGF22 binding inactive, Ecoli rRNA inh 0.3, Beta2AR agonist -15.5, UCH37 DUB inh 2.4, HNF4A DNA FP -0.5, E coli growth 0.688, ALR inh -0.6, Ecoli rRNA inh OD600 3.7 and Ecoli rRNA inh RFP 0.8.
`CCC(C(=O)NCc1ccco1)n1nc(-c2ccc(OC)cc2)ccc1=O` (stereo not drawn) gave Beta2AR agonist -1.0, UCH37 DUB inh 0.0, HNF4A DNA FP -3.4, E coli growth 0.66 and ALR inh 2.0.

Structures above that contain a COOH group (2):
`CCOc1ccc(C(=O)CC(Sc2ccc(C)cc2)C(=O)O)cc1` (stereo not drawn) gave FGF22 binding inactive, Ecoli rRNA inh -3.5, Beta2AR agonist 5.9, UCH37 DUB inh 4.5, HNF4A DNA FP -0.1, E coli growth 0.662, ALR inh 95.5*, Ecoli rRNA inh OD600 3.7 and Ecoli rRNA inh RFP 2.7.
COc1cc(/C=C/C(=O)O)cc(S(=O)(=O)N(C)CCO)c1OC was read as Beta2AR agonist 4.2, UCH37 DUB inh 3.0, HNF4A DNA FP 0.1, E coli growth 0.748 and ALR inh -4.9.
